# GIV-Gai inh: blocks GIV peptide binding to rat Galpha-i3; P08753; Galpha-i3/FITC-GIV peptide fluorescence polarization, 90 min; stronger effect = lower value; scaled: aluminum fluoride 0%, vehicle 100%; percent of control (FP), % (no concentration beside the values); hit rate 0.42% among 210,000; AID 1224905;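 active = replicate mean at 85% of control or lower, very high polarization wells dropped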;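 also: wells of about 15 µL received 100 nL stock; the first replicate is given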
# Target sequence (P08753 whole entry, looked up): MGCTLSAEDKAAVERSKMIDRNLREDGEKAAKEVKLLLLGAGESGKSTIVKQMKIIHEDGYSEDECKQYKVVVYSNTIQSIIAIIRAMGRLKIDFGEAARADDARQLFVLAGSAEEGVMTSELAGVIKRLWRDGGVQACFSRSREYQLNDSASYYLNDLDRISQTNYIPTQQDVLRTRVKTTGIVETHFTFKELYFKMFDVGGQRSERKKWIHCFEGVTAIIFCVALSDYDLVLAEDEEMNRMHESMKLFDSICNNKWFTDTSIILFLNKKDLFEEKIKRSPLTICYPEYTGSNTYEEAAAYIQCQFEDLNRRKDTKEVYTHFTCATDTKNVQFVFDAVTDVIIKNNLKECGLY
# HCMV NEC inh: disrupts HCMV UL50-UL53 complex binding | hit rate 0.15% among 190,000 | inhibition, % (no concentration beside the values) | HTRF UL50-UL53 interaction, normalized percent inhibition | AID 1918969;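 active = both replicates at 50% or more, plus weaker picks with an unusually low signal ratio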;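 also: stock transfer was 100 nL into about 20 µL; 0% = negative control wells and 100% = wells with untagged competitor protein; inactives centre near -12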
# Sa growth inh: S. aureus growth inhibition; S. aureus RN4220 growth, OD600, 20 h, 42 °C; stronger effect = lower value; relative growth, % (no concentration beside the values); hit rate 0.53% among 170,000; AID 720641;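 active = growth at 42 °C up to 50% and 20 or more points under that at 30 °C, or under 10% at both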;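 also: 300 nL library stock went into each well; scaled to the means of positive and negative controls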
# Sa growth inh second temp: recorded beside Sa growth inh, whose call it bears; relative growth, %; measured here: growth at 30 °C;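 optical density after 20 h as mean of two plates; 100% = untreated growth and lower means inhibition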
# Active calls of the source: *; x = no result given; & = joins results of further samples. This is a random part of the collection, and some 0.8% of all compounds hit somewhere here.
SMILES	GIV-Gai inh	HCMV NEC inh	Sa growth inh	Sa growth inh second temp
Cc1ccc(NC(=O)c2oc3ccc(S(=O)(=O)N4CCCCC4)cc3c2C)cc1C	98	x	97	91
COc1cc2c(cc1OC)CN(C(=O)CSc1nc3[nH]ncc3c(=O)n1-c1ccccc1)CC2	100	-10	81	79
COc1ccc(Nc2ncc(C(=O)Nc3cccc(Cl)c3)c3ccccc23)cc1	98	23	117	83
CC(C)CC(=O)Nc1ccc(-c2nc3ccccc3s2)cc1	107	-29	x	x
CCc1ccc(NC(=O)Cn2c(C(=O)OC)cc3sccc32)cc1	104	1	106	99
O=S(Nc1ccc2c(c1)OCCO2)C12CC3CC(CC(C3)C1)C2 (configuration not stated)	103	-14	109	96
COc1ccc2c(c1)c1nc3cc4ccccc4cc3nc1n2C(C)=O	107	-10	x	x
CCCN(S(=O)(=O)c1ccc(S(=O)(=O)N2CCCC2)cc1)S(=O)(=O)c1cccc(Cl)c1	x	17	84	94
CCOC(=O)C1=C(C)NC2=C(C(=O)CC(c3ccc(OC)c(OC)c3)C2)C1c1cccc([N+](=O)[O-])c1 (configuration not stated)	99	-12	x	x
CS(=O)(=O)c1ccccc1-c1nnc(NC(=O)COc2ccc(Cl)cc2)o1	105	6	75	63
CC(=O)NCCc1nc2ccccc2n1Cc1c(C)cc(C)cc1C	105	-17	x	x
O=c1oc2ccccc2cc1-c1nnc(-c2cccc(Cl)c2)o1	101	5	99	103
O=C(NCc1ccc(Cl)cc1)c1ccc(-n2cccn2)nc1	105	6	x	x
CCOc1ccc(CN2C(=O)c3oc4ccccc4c3OCC2(C)C(=O)NC2CCCC2)cc1 (configuration not stated)	102	-22	x	x
CC1CCN(C(=O)CSc2nnc3n2CCCCC3)c2ccccc2S1 (configuration not stated)	x	-26	81	85
CNS(=O)(=O)c1ccc(F)cc1	x	-20	123	87
CCc1ccc(NC(=O)CCc2nc3cccnc3n2-c2ccccc2)cc1	105	x	103	82
COc1ccc(/C=N\N2CCN(Cc3ccc(C)cc3)CC2)cc1OC	101	-10	105	100
CC(C)OCCCNC(=O)c1ccc(CSc2nc3cccnc3n2Cc2ccccc2)cc1	99	x	86	89
COC(=O)c1ccc2c(=O)n(CCC3=CCCCC3)c(SCc3cccnc3)nc2c1	97	1	81	80

# New compounds follow
SMILES	GIV-Gai inh	HCMV NEC inh	Sa growth inh	Sa growth inh second temp
CSc1nnc2c(n1)OC1(Nc3ccccc3-2)C(=O)Nc2ccc(Cl)cc21 (configuration not stated)	100	50*	79	54
COc1cccc(CSc2nnc(-c3ccc(F)cc3)o2)c1	105	-18	105	83
O=C(O)c1cc2c([nH]1)CCCC2	107	-22	92	85
O=C1CCC(C2CCC3(CC2)OCCO3)CC1	94	8	78	114
CNC(=S)N1CCn2cccc2C1c1ccc(F)cc1 (configuration not stated)	105	-28	93	76
Cc1ccccc1-c1ncnn1-c1sc2c(c1C#N)CCCCC2	107	-58	107	87
CCOc1ccc(OCC)c(NC(=O)c2cnc(SC)nc2-c2ccccc2)c1	104	x	96	115
Cc1sc2nc(CN3CCOCC3)nc(N(C)Cc3ccccc3)c2c1C	x	-8	57	52
N#Cc1c(-c2ccc3c(c2)OCO3)cc(-c2ccc(F)cc2)nc1N	111	2	103	104
N=C1C(c2nc(-c3ccc(Br)cc3)cs2)=C(O)CN1C1CCS(=O)(=O)C1 (configuration not stated)	x	-18	79	89
O=S(=O)(c1ccc(-c2noc(-c3cnccn3)n2)cc1)N1CCCCC1	111	-24	x	x
O=C1NC(=O)c2cccc3cccc1c23	105	-92	91	77
COC(=O)C1=C(C)NC2=C(C(=O)CC(C)(C)C2)C1c1ccncc1 (configuration not stated)	103	x	103	110
CCOC(=O)c1c(NC(=O)c2ccc(C)c([N+](=O)[O-])c2)sc(C(=O)Nc2cc(C(F)(F)F)ccc2Cl)c1C	98	-25	x	x
CC1(C)CC(NCc2ccccc2)CC(C)(C)N1	103	-18	90	91
COc1ccccc1N1CCN(CCCNC(=O)c2nnc(Cc3ccc(F)cc3Cl)o2)CC1	106	3	101	91
O=C(Nc1cccnc1)C1c2ccccc2C(=O)N2CCc3ccccc3C12 (configuration not stated)	102	2	117	98
CN=C(Nc1cccc(Cl)c1)SC	103	-5	92	83
COC(=O)c1c(N)sc(/C(C)=C/C#N)c1C	x	-49	103	65
COc1ccccc1/C=C(/C(=O)OCC(=O)Nc1oc(C)c2c(C)n[nH]c(=O)c12)c1ccccc1	x	-17	107	92

# Further entries
SMILES	GIV-Gai inh	HCMV NEC inh	Sa growth inh	Sa growth inh second temp
Cn1cc(-c2cc3n(n2)CCC(=O)N3CC(=O)N2CCN(C3CCCCC3)CC2)c2ccccc21	101	-27	x	x
Nc1ccc(Sc2ccccc2Cl)cc1	102	-5	x	x
CCN1CCCC1CNC(=O)c1cc(NC(C)=O)c(N(C)C)cc1OC (configuration not stated)	104	x	104	86
CCN1CCN(C(=O)C2c3ccccc3C(=O)N(Cc3ccc(F)cc3)C2c2ccc(OC)cc2)CC1 (configuration not stated)	109	-4	98	91
COc1cccc(CNCC(O)Cn2nnnc2-c2ccccc2)c1 (configuration not stated)	103	x	102	85
NC1=NN(c2c(Cl)cc(Cl)cc2Cl)C(=O)C1	105	9	108	69
Cc1occc1-c1nnc(SCC(=O)NCc2ccc3c(c2)OCO3)n1CC(C)C	99	-21	85	82
O=C(CSc1nc2ccccc2o1)N1CCC(n2cccc2)CC1	103	-25	133	86
COc1ccc(-c2cc(C(F)(F)F)nc(SCC(=O)N3CCCCC3)n2)cc1OC	99	-24	88	93
COc1cccc(C2CC(=O)Nc3c2c(C)nn3-c2ccc3nncn3n2)c1OCc1cccc(F)c1 (configuration not stated)	102	-31	x	x
CNC(=O)c1ccccc1Sc1cccc2cccc(C(=O)NC)c12	99	-33	118	85
Cc1ccc2c(c1)c1c(c(=O)n(Cc3ccccc3)c(=O)n1Cc1ccccc1F)n2C	102	x	96	89
CC(C)C1CC(O)(C2(O)CCCCC2)ON1 (configuration not stated)	98	-12	95	89
Cc1cc(C)n2nc(N(C)S(=O)(=O)c3ccccc3)nc2n1	107	-30	x	x
CC1(C)Cc2nc3sc4c(N5CCNCC5)ncnc4c3cc2CS1	105	-13	98	82
COc1ccc2c(CSc3nnc(-c4cccs4)n3N)cc(=O)oc2c1	x	-55	72	90
S=C(NC1CCCCC1)N(Cc1ccccc1)Cc1ccccc1	101	x	80	76
CCn1nc(C)c(N=Cc2ccc(N(C)C)c(Br)c2)c1C	x	-24	89	88
COc1ccc(-c2cc(C(=O)Nc3ccccc3F)c3ccccc3n2)cc1OC	103	-20	x	x
Cc1ccc(-c2sc(C(=O)Nc3ccc(Br)cc3)cc2CC(=O)O)cc1	99	-92	50	26

# 5 entries from above, arranged by the number in GIV-Gai inh, falling.
structure	GIV-Gai inh	Sa growth inh second temp
Cc1cc(C)n2nc(N(C)S(=O)(=O)c3ccccc3)nc2n1	107	x
CC1(C)Cc2nc3sc4c(N5CCNCC5)ncnc4c3cc2CS1	105	82
Nc1ccc(Sc2ccccc2Cl)cc1	102	x
CNC(=O)c1ccccc1Sc1cccc2cccc(C(=O)NC)c12	99	85
CC(C)C1CC(O)(C2(O)CCCCC2)ON1 (configuration not stated)	98	89

# (next part)
SMILES	GIV-Gai inh	HCMV NEC inh	Sa growth inh	Sa growth inh second temp
Cc1noc(C(=O)NCCc2ccccc2)c1Cl	107	8	104	93
CCOC(=O)c1oc2c(c1C)-c1nn(Cc3ccccc3Cl)cc1CC2	104	-11	108	95
c1cc(N2CCOCC2)ccc1-c1noc(C2CC2)n1	104	-5	x	x
CCS(=O)(=O)N1Cc2ccccc2CC1C(=O)OCC(=O)Nc1ccc(C(F)(F)F)cc1 (configuration not stated)	x	-12	100	95
CCC1(C(=O)OC)NC(c2ccc(OC)cc2)C2C(=O)N(C)C(=O)C21 (configuration not stated)	108	2	90	98
Clc1ccc(OCCSc2nnc(-c3ccc4c(c3)OCO4)o2)cc1	101	4	x	x
Cc1ccccc1CSc1nn2c(=O)c(C)nnc2s1	102	-24	x	x
CC(NC(=O)CSc1nc2ccc(N=Cc3ccccc3O)cc2s1)c1ccccc1 (configuration not stated)	100	x	110	85
Cc1nnc(NCCCO)[nH]c1=O	99	-8	87	89
CCc1c(C)nc2ncnn2c1Nc1ccccc1	99	-17	x	x
Cc1ccc(CCNC(=O)CCCc2cn(C)c3ccccc23)cc1	104	2	126	88
O=C1c2cccc3cccc(c23)C(=O)N1CC1CCN(C(=O)C23CC4CC(CC(C4)C2)C3)CC1	104	-13	x	x
CCCc1cc(=O)oc2cc(OCC(=O)NC3CCCC3)c(Cl)cc12	x	-8	93	88
C/C(=N\O)c1nnn(-c2cc(C(F)(F)F)cc(C(F)(F)F)c2)c1C	103	-14	78	77
COc1cc(COC(=O)c2ccc3c(c2)NC(=O)C2CCCN32)ccc1OC(F)F (configuration not stated)	x	-20	83	86
O=C(Cn1ncc2ccccc21)NCCc1ccccc1	99&105	-5	100	91
CC(=O)Nc1ccc2c(c1)nc(CN1CCOCC1)n2C	104	16	x	x
CCCCn1c(=O)cc(O)c2ccccc21	101	-11	87	82
CC(NC=O)c1nc2ccccc2n1C/C=C/c1ccccc1 (configuration not stated)	104	-24	107	101
CN(C)S(=O)(=O)c1ccccc1	103	5	105	105

# Continuation:
SMILES	GIV-Gai inh	HCMV NEC inh	Sa growth inh	Sa growth inh second temp
Cc1nc2cc(NC(=O)CCn3[nH]c(=O)ccc3=O)ccc2n1-c1ccccc1	x	-14	82	84
CCn1c(=O)c2sccc2n2c(CCC(=O)NC(C)C)nnc12	95	-16	x	x
COc1ccc2cc(CNc3ccc(OC)c(OC)c3)c(=O)n(CC(=O)Nc3ccc(C)cc3)c2c1	107	x	93	90
O=c1c2c(-c3ccccc3)csc2ncn1C1CCCC1	100	-20	x	x
O=S(=O)(Nc1ccc(Cl)cc1OC(F)(F)F)C(F)(F)F	106	-24	9.5*	1.9*
CCOc1ccccc1CNC(=O)c1cn(-c2cccc(OC)c2)c(=O)c2ccccc12	100	x	106	98
CCOC(=O)N1CCN(c2cc(Nc3c(C)cc(C)cc3C)c3c4c(onc24)-c2ccccc2C3=O)CC1	140	-25	101	84
Cc1[nH]cnc1CN1CCCCCCC1	101	-4	97	106
Cc1nc2cc(C(=O)NCCN(C)C)ccc2n1-c1ccccc1	106	15	83	79
Cc1nn(-c2ccc(N3CCCC3)nn2)c(C)c1CCC(=O)NC1CCN(Cc2ccccc2)CC1	104	-66	x	x
COc1ccc(-c2nc(Cn3c(SCc4cccc(F)c4)nc4cccnc43)c(C)o2)cc1	100	x	111	89
CO/N=C(\C(=O)NC1C(=O)N2C(C(=O)OCOC(=O)C(C)(C)C)=C(/C=C\c3scnc3C)CSC12)c1csc(N)n1 (configuration not stated)	x	-62	5.1*	28*
CCc1ccc(-c2ccc(=O)[nH]n2)cc1S(=O)(=O)Nc1ccc(C)cc1C	106	-26	x	x
CCOc1ccc(CNC(=O)CCS(=O)(=O)c2ccc3c(c2)oc(=O)n3C)cc1	103	x	107	97
COc1cccc(-n2c(=O)c3c(C)c(C(=O)N(C)C)sc3n(Cc3ccc(F)cc3Cl)c2=O)c1	103	x	116	91
Nc1cc(Cl)ccc1C(=O)OCC(=O)N1CCCC1	x	-31	97	82
C=CCn1c(SCC(=O)Nc2ccc(C)cc2)nc2sc(C)c(C)c2c1=O	105&93	2&-6	x	x
O=C(Cn1c(=O)nc(-c2ccccc2)c2cc(Cl)ccc21)N1CCN(c2ccccc2F)CC1	103	x	90	89
COCCN1CN=C(NS(=O)(=O)c2ccc(C)cc2)NC1	102&101	-2&-34	100	90
O=S(=O)(c1cccc(C(F)(F)F)c1)n1cccc1	102	11	101	105

# The list goes on (2 carried over from the part before).
SMILES	GIV-Gai inh	HCMV NEC inh	Sa growth inh	Sa growth inh second temp
COCCN1CN=C(NS(=O)(=O)c2ccc(C)cc2)NC1	102&101	-2&-34	100	90
O=S(=O)(c1cccc(C(F)(F)F)c1)n1cccc1	102	11	101	105
CC(NC(=O)Cc1noc2ccccc12)c1ccccc1 (configuration not stated)	99	x	108	93
COc1ccc(Cn2c(=O)[nH]c3cc(C(=O)NCc4ccccc4)ccc3c2=O)cc1	103	x	93	87
CCCc1noc2c1C(c1cc(Br)ccc1F)C(C#N)=C(N)N2 (configuration not stated)	100	x	95	81
CC1CCC(C(=O)N2CCCC2C(=O)O)CC1 (configuration not stated)	106	-16	98	83
COc1cc(-c2nc3c(C(C)(C)C)cc(C(C)(C)C)c(O)c3o2)ccc1O	101	12	81	34
COc1ccccc1Nc1c2c(nc3ccc(NC(=O)/C=C/c4cccc(OC)c4OC)cc13)CCCC2	105	-14	136	78
Cc1c(NC(=O)CN2C(=O)S/C(=C\c3ccccc3)C2=O)c(=O)n(-c2ccccc2)n1C	103	-21	x	x
CCc1ccc(-c2cc(C)no2)cc1S(=O)(=O)N1CCN(c2ccccn2)CC1	103	-13	98	88
Nc1ccc(S(=O)(=O)NC(=O)c2ccccc2)cc1	x	-48&-1	76	80
Cc1cccc(NCc2nnc(-c3ccccc3)o2)c1	104	-9	106	81
Cc1nc(Nc2ccc(NC(=O)C(C)C)cc2)cc(N(C)C)n1	99	-30	x	x
